Screening data from PubChem BioAssay.
NPR1 antag = human Npr1 receptor antagonism. P16066. Potency, µM (series often up to 46.3 µM), for inactives: at the highest dose activity change, negative = inhibition, usual class: inhibitors. HEK293 hNpr1 GloSensor cGMP, ANP-stimulated luminescence. AID 1347048. actives 1.6% (n = 76,000); active = well fitted inhibition curve with a large enough effect; inconclusive = small, poorly fitted or top-dose-only effect; inactive = no such curve, though single readings can be large or run the other way;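 also: nearly all actives have a fitted effect of over 60% in size; nearly all hits also lower the signal before the agonist is added; a reference antagonist and vehicle were the controls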
Target sequence (P16066 whole entry, looked up): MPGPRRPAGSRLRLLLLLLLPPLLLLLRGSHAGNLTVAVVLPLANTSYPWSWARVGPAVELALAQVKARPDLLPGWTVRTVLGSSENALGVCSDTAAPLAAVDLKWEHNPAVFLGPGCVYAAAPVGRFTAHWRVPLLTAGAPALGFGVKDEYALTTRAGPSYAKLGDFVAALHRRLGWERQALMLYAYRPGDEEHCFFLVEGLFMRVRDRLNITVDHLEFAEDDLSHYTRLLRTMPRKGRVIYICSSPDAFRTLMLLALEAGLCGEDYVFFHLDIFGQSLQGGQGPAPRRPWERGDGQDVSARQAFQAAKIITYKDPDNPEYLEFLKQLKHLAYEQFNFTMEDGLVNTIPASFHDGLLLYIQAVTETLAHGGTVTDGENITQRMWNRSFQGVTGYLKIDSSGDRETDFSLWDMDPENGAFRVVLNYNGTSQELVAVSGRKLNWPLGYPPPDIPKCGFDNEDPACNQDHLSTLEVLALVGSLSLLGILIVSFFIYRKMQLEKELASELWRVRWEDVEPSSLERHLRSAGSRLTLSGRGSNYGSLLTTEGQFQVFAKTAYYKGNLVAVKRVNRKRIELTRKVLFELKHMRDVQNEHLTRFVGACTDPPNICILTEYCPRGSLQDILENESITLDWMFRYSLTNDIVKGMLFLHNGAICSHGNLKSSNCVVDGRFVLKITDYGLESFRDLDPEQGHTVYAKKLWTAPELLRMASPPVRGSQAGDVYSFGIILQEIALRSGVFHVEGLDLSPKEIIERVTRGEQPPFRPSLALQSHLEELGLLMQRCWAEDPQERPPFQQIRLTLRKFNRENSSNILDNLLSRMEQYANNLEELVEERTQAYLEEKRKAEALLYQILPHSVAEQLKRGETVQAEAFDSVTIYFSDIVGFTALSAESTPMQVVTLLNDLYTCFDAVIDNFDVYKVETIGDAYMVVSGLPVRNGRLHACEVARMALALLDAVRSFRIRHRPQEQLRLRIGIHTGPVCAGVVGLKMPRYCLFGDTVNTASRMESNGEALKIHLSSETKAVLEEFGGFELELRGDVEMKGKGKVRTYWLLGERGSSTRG
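Compound pre-incubated 30 min at room temperature on GloSensor-loaded HEK293 cells stably carrying hNpr1 and the pGS-40F cGMP biosensor. Stimulation uses hNppA at 0.1 nM final; luminescence is taken at baseline and 20 min post-agonist.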
* = called active by the depositor; ? = inconclusive; [ ] = dose if it differs, or a comment. % is scaled to controls: 0 for no effect and ±100 for the full control effect; potency is read from the fitted curve at half-maximal effect.

canonical_smiles	NPR1 antag
O=C1NCCCCCCN(C(=O)CC2CCCCC2)[C@H]2C[C@H](c3nc(Cc4ccccc4)no3)C[C@@H]12	-8%
O=C1CCCCC(C(=O)NCCCN2CCc3ccccc3C2)N1 (stereo unspecified)	3%
Cc1ccc(C2Cn3nnc(C(=O)N4CCC(C(=O)NCc5ccccc5C)CC4)c3CO2)cc1 (stereo unspecified)	3%
CNCCN1C(=O)CC[C@H]2CN(C(=O)Cc3c(C)nc(N)nc3C)CC[C@H]21	0%
Cn1ccnc1C(=O)NCC(=O)N1CCCCCCNC(=O)CC1c1ccccc1 (stereo unspecified)	-4%
Cc1ccc(-n2c(C3CCN(C(=O)Cc4c(F)cccc4Cl)CC3)n[nH]c2=O)cc1	-2%
CC(=O)NC1CCN(C(=O)N2CC3CC(C2)[C@H]2CCCC(=O)N2C3)CC1 (stereo partly specified)	7%
Cc1cc2cc(-c3c(C)noc3C)nc(NCC3CC3)c2o1	-4%[70.6 µM]
O=C(C1CCCC1)N1CCN(c2cc(-c3ccc(Cl)cc3)[nH]n2)CC1	2%
Cc1noc(-c2cccc(OC3CN(C(=O)NCc4ccccc4)C3)c2)n1	-13%
FC(F)(F)c1ccnc(N2CC[C@H](c3nnc(-c4ccncc4)o3)C2)n1	-10%[70.6 µM]
O=C1Nc2cc(Cl)ccc2C(=O)N2CCN(C(=O)c3ccccc3)C[C@H]12	5%[70.6 µM]
O=C(NCCc1ccccn1)C1CN(S(=O)(=O)c2cccnc2)CC12CCCCC2 (stereo unspecified)	-1%
COc1cc(NC(=O)Cn2ccn3nc(-c4ccc(F)cc4)c(CO)c3c2=O)cc(OC)c1OC	-3%
O=C1Nc2ccccc2OCC12CCN([S+](=O)([O-])c1cccs1)CC2	1%
O=C(NCCCN1CCCC1)c1ccc2c(c1)N(S(=O)(=O)c1ccccc1F)CC2	5%
Cc1cccc(CNC(=O)c2cc3c(N4CCCC4)nc(C)cn3n2)c1	-13%
O=C(c1cccc(F)c1)N1CCC2(CCCCO2)CC1	0%
COCC1CN(C(C)=O)CC12CCN(C(=O)c1ccc(C)cc1C)CC2 (stereo unspecified)	2%
COc1ccc(C(=O)N2CCc3ccc(C(=O)NC(C)C)cc32)cc1	-6%
Cc1cc(C[C@@H]2COC[C@@H]2NC(=O)c2ccc(N3CC(=O)NC3=O)cc2)on1	1%
COC(=O)c1cccc(C(=O)N2CCC(Cc3nc(-c4ccc(OC)cc4)no3)CC2)c1	6.3µM*
CC(C)CNC(=O)N1CCC2(CC1)CC(C(=O)N1CCOCC1)N(C)C2 (stereo unspecified)	-1%
C[C@@H](NC(=O)c1ccc(Cl)cc1)c1onc(-c2ccc(F)cc2)c1C(=O)O	-1%[70.6 µM]
Nc1nc2c(c(=O)[nH]1)CCN(C(=O)Cc1c[nH]c3ccccc13)C2	7%
COc1cncc([C@@H](NC(=O)c2coc3ccccc23)C2CC(O)C2)c1 (stereo partly specified)	13%
CC(C)(C)C(=O)N1CCC2(CC1)OCC(C(=O)NCC1CCCO1)N2C(=O)c1ccc(F)cc1 (stereo unspecified)	-1%
CCN(CC)Cc1ccc2c(c1)CN(C(=O)c1ccsc1)CCO2	-10%
Cc1ccc(CN2CCCN(S(=O)(=O)c3ccccc3)CCC(=O)NCC2)s1	1%
COc1cccc(CC(=O)N2C[C@@H](Oc3ccccc3)C[C@H]2C(=O)N2CCCC2)c1	2%
COc1cccc(C2Cn3nnc(-c4nc(-c5cccc(Cl)c5)no4)c3CO2)c1 (stereo unspecified)	-3%
CN(CC1CCOCC1)C(=O)c1ccc(F)cc1Cl	0%
CN1CC2(CCN(c3ccc(C#N)cn3)CC2)CC(c2ccccc2)C1=O (stereo unspecified)	0%
COc1ccccc1N1CCN(C(=O)C2CCCN(S(C)(=O)=O)CCC(=O)NCC2)CC1 (stereo unspecified)	6%
COC[C@H]1C[C@@H](NS(C)(=O)=O)[C@H](O)[C@@H]1O	-1%[70.6 µM]
Cn1cnc(S(=O)(=O)N2CC(F)(F)C[C@H]2c2nc(C3CC3)no2)c1	13%
COCCNC(=O)c1ccc2c(c1)N=C(C)c1cc(C)ccc1S2	0%
CC(c1cccs1)N(C)C(=O)Nc1ccc(Cl)cc1 (stereo unspecified)	1%[70.6 µM]
Cc1ccc(CCNC(=O)CN2CC3CC(C2)[C@H]2CCCC(=O)N2C3)cc1 (stereo partly specified)	-2%
CCOC(=O)c1ccc(NC(=O)Cn2c(-c3cnccn3)nc(C)c(CCO)c2=O)cc1	-22%
CCOCCOC1CCN(C(=O)NCc2ccc(C)cc2)CC1	-5%
COc1ccccc1NC(=O)N1CCC2(CC1)SCC(=O)N2Cc1ccco1	-1%
O=C(c1ccco1)N1CCOc2ccc(CN3CCc4ccccc4C3)cc2C1	6%
CN[C@@H](CC(C)C)c1nc(-c2cccnn2)no1	-2%
O=C(O)COc1ccc(-c2nccc3c2C(=O)N(Cc2c[nH]c4ccccc24)CC(COc2cccc(N4CCOCC4)c2)O3)cc1 (stereo unspecified)	8%
CN(Cc1nccn1C)Cc1cnc(S(=O)(=O)CC2CC2)n1CC1CCCCC1	-7%
COCCOc1ccc(C(=O)N[C@@H]2CN(C3CCN(C)CC3)CCC[C@H]2O)cc1	3%[70.6 µM]
O=C(NC1CCCN(c2cc(-c3ccccc3)[nH]n2)C1)c1cc(Cl)ccc1F (stereo unspecified)	-20%
CN(C)CCN(C)C(=O)c1ccc(-c2ncc3cnc(-c4cccc(F)c4)cn23)cc1	-6%[70.6 µM]
O=C(COc1ccc(F)cc1)N1CCC(Oc2ncccc2C(=O)N2CCCCC2)C1 (stereo unspecified)	3%
CN(Cc1ccccc1)Cc1cc(C[C@H]2CNCC[C@H]2CC(=O)N2CCOCC2)no1	2%[70.6 µM]
COc1ccc(C(=O)N2CCOCC3(C2)CN(c2ccccc2)C3)cc1OC	-1%[70.6 µM]
O=C(c1[nH]ncc1Cl)N1CCCC(CCc2c(F)cccc2F)C1 (stereo unspecified)	-18%
CCn1cc(C(=O)N2CCCC(C(=O)Nc3cccc(-c4cc5ccccc5[nH]4)c3)C2)cn1 (stereo unspecified)	-5%
CC(C)CCN1CC2(CCN(C(=O)C3CC34CCCC4)CC2)OC1=O (stereo unspecified)	1%
COc1ccc(CN2C[C@H](O)C[C@H]2c2nc(-c3cccc(C)c3)no2)c2ccccc12	-27%[70.6 µM]

(more compounds)
canonical_smiles	NPR1 antag
CCOc1ccccc1-c1noc(-c2nnn3c2COC(c2cccc(OC)c2)C3)n1 (stereo unspecified)	-3%
O=C1COc2ccc(OCC3CC3)nc2CN1Cc1ccc(C(F)(F)F)cc1	-9%[70.6 µM]
COCCOCc1nc(C2CCCN2S(=O)(=O)Cc2ccccc2F)no1 (stereo unspecified)	-15%
CC1CCN(CC2CCCN(C(=O)COc3ccc(F)cc3)CC2)CC1 (stereo unspecified)	2%
O=C(NC1CC1)c1ccc(CC2CCN(C(=O)C3CCOC3)CC2)cc1 (stereo unspecified)	8%
Cn1ncc(N2CCOC(CCNc3nc4ccccc4s3)C2)cc1=O (stereo unspecified)	0%
CCNC(=O)[C@@H]1C[C@H](NC(=O)c2cccc(-c3ccc(F)cc3)c2)CN1C	1%
O=C(O)c1ccc(C2CCCN(C(=O)c3cccc(N4CCOCC4)c3)C2)cc1 (stereo unspecified)	3%
N#Cc1ccc(CN2CCCC(c3nccn3Cc3ccccc3)C2)cc1 (stereo unspecified)	4%
OCC1(CCOc2ccccc2)CCN(c2nnnn2-c2ccccc2)CC1	0%
Cc1cccc(-n2ncc3c2CCCC3NC(=O)CN2CCNC(=O)C2)c1C (stereo unspecified)	0%
CCn1cc(S(=O)(=O)N(C)C2CCc3nn(C)c(=O)n3CC2)cn1 (stereo unspecified)	5%
O=C(CCCc1c[nH]c2ccccc12)N1CCc2nc3cc[nH]n3c(=O)c2C1	-6%
CO[C@H]1[C@H](NC(=O)c2ccc(=O)n(C)n2)c2ccccc2C12CCNCC2	1%
CC[C@H]1COCCN1C(=O)c1csc(Cc2ccccc2)n1	-3%
Cn1cc(C(=O)N2CCCCCCn3c(nnc3-c3ccc(F)cc3)CC2)cn1	0%
CNS(=O)(=O)c1cccc(C(=O)N2CCCC2c2ccco2)c1 (stereo unspecified)	-3%
O=C1NCCCCCN(C(=O)c2ccoc2)[C@@H]2C[C@@H](C(=O)N3CCc4ccccc4C3)C[C@H]12	3%
O=C(NCCN1CCNC1=O)c1cnc2n1CCN(Cc1cccnc1)CC2	5%[70.6 µM]
O=C(CCC[C@H]1NC[C@@H]2CC1CN(Cc1ccccc1)C2)N1CCCCC1	-2%
Cc1cnc(CC2CCN(C(=O)C3COc4ccccc4O3)CC2)n1Cc1ccc(F)cc1 (stereo unspecified)	-2%
CN(C)c1nc2c(c(=O)[nH]1)CCN(Cc1ccc(F)c(F)c1)CC2	-11%
COc1ccc(C(=O)N2CCCOCCNC(=O)[C@@H]3CCCC[C@@H]32)c(OC)n1	-10%
CCc1noc(-c2cn(C3CCN(C(=O)c4ccoc4)C3)nn2)n1 (stereo unspecified)	-2%

Four records picked at random from the list so far, as already listed:
canonical_smiles	NPR1 antag
CCc1noc(-c2cn(C3CCN(C(=O)c4ccoc4)C3)nn2)n1 (stereo unspecified)	-2%
O=C(NCCN1CCNC1=O)c1cnc2n1CCN(Cc1cccnc1)CC2	5%[70.6 µM]
CNS(=O)(=O)c1cccc(C(=O)N2CCCC2c2ccco2)c1 (stereo unspecified)	-3%
COc1ccc(C(=O)N2CCCOCCNC(=O)[C@@H]3CCCC[C@@H]32)c(OC)n1	-10%

Following part.
canonical_smiles	NPR1 antag
Cc1ccc(F)c(OC2(C(=O)O)CCN(Cc3cccc(C)n3)CC2)c1	3%
Cc1ccc(-c2cc(N3CCCN(C(=O)c4sccc4C)CC3)n[nH]2)cc1C	-20%
CC1=C(C(=O)OC(C)C)C(c2ccccc2C)N2C(CC(=O)NC3CC3)=CSC2=N1 (stereo unspecified)	?
COc1ccc(CNC(=O)C2Cn3cccc3C(=O)N2Cc2cccnc2)cc1OC (stereo unspecified)	-7%
CC(C)NC(=O)C[C@@H]1CCNC[C@@H]1Cc1cc(-c2ccccc2)on1	0%[70.6 µM]
CC(=O)c1ccc(NC(=O)N2C[C@@H]3C[C@H](C2)c2ccc(NC(=O)Nc4cccc(C#N)c4)c(=O)n2C3)cc1	3%
O=C(CCC1CCCC1)N1CCC(c2noc(COc3ccc(F)cc3)n2)C1 (stereo unspecified)	10µM*
COCC1(CNCC2CCCC2)C[C@@H](O)[C@@H](O)C1 (stereo partly specified)	2%[70.6 µM]
CN1c2cc(C(=O)Nc3cccc(Br)c3)ccc2C(=O)N2CCCCCC21 (stereo unspecified)	1%
O=C(Cn1cccc1-c1nc(-c2ccc(F)cc2)no1)Nc1ccc(F)c(F)c1	0%
Cc1ccc(NC(=O)Nc2cccc(-c3ccc(N4CCOCC4)nn3)c2)cc1F	-26%
CN1C(=O)CC(C(=O)O)C12CCN(C(=O)Nc1cccc(F)c1)CC2 (stereo unspecified)	8%
CC(C)c1noc(-c2cn(C3CCN(C(=O)c4ccc(C#N)cc4)C3)nn2)n1 (stereo unspecified)	?
COc1ccc(CCN2CC(NCc3ccc(-n4cccn4)cc3)CC2=O)cc1 (stereo unspecified)	-1%
CCOC(=O)C1CCCN(C(=O)C2CC(c3ccc(CC)cc3)CN(C(=O)c3ccoc3)C2)C1 (stereo unspecified)	0%
CN(C)S(=O)(=O)c1ccc(CNC(=O)C2CCCN(CC(N)=O)C2)cc1 (stereo unspecified)	4%
CN1C[C@@H](N)C[C@H]1c1nc(-c2ccc3c(c2)OCO3)no1	-5%[70.6 µM]
O=C1[C@@H]2C[C@@H](O)CN2C2(CN(C3CCC(F)(F)CC3)C2)C(=O)N1Cc1cccc(Cl)c1	-2%
O=C(c1ccccn1)N1CCN(C(=O)c2nnn3c2COC(c2ccc(Cl)cc2)C3)CC1 (stereo unspecified)	3%
O=C1O[C@@H]2CN(S(=O)(=O)N3CCCC3)C[C@@H]2N1CCc1cccc(Cl)c1	7%
COc1ccc(C2Cn3nnc(-c4noc(Cc5ccccc5OC)n4)c3CO2)cc1 (stereo unspecified)	-4%
O=C1[C@@H]2C[C@@H](O)CN2C2(CN(C3Cc4ccccc4C3)C2)C(=O)N1Cc1ccccc1F	2%
CN(C)CC(C)(C)NC(=O)c1csc2nc(-c3cccc(C(F)(F)F)c3)cn12	-9%
O=C(CCc1nc2ccccc2[nH]1)NC1CCN(C(=O)N2CC3CC(C2)[C@H]2CCCC(=O)N2C3)CC1 (stereo partly specified)	-2%
CCc1ccccc1S(=O)(=O)N1C[C@@H](F)C[C@H]1C(=O)N1CCCCC1	-11%

A portion of the results above:
canonical_smiles	NPR1 antag
O=C1[C@@H]2C[C@@H](O)CN2C2(CN(C3Cc4ccccc4C3)C2)C(=O)N1Cc1ccccc1F	2%
CN(C)CC(C)(C)NC(=O)c1csc2nc(-c3cccc(C(F)(F)F)c3)cn12	-9%
O=C(CCc1nc2ccccc2[nH]1)NC1CCN(C(=O)N2CC3CC(C2)[C@H]2CCCC(=O)N2C3)CC1 (stereo partly specified)	-2%
CCc1ccccc1S(=O)(=O)N1C[C@@H](F)C[C@H]1C(=O)N1CCCCC1	-11%

A portion of the library; the hit share may differ from the screen's.
